# Cruzain Triton: blocks cruzain activity in presence of Triton detergent; purified cruzain, Z-FR-AMC fluorescence, 0.01% Triton; Potency, µM, for inactives: max response, negative = inhibition, actives largely listed as inhibitors; 0.43% of 200,000 active; active means well fitted curve in the direction sought with a large enough effect; inconclusive means small, poorly fitted or top-dose-only effect, or another doubt; inactive means no such curve, though single readings can be large; an effect the other way counts as inactive or inconclusive;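 further: plate controls were neutral wells for no effect and buffer without enzyme for full effect; nearly all actives have a fitted effect of over 40% in size; top concentration of the series not given in the record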
# Target sequence (P25779 123-467 limits assumed): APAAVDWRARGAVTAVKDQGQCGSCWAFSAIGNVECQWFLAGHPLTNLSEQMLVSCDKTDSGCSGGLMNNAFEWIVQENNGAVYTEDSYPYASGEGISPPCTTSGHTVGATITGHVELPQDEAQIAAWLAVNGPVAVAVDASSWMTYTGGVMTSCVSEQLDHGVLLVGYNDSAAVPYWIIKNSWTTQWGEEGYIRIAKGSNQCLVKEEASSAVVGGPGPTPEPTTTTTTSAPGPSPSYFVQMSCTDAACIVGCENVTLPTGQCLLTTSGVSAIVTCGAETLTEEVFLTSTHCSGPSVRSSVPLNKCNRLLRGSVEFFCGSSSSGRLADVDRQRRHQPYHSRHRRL
#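 Cysteine protease activity tested under reducing, mildly acidic conditions (100 mM sodium acetate pH 5.5, 5 mM DTT) plus 0.01% Triton X-100. Cruzain 1.5 nM; substrate Z-FR-AMC 2 uM; 15 min compound preincubation at room temperature.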
# LASV entry inh: blocks Lassa virus binding to or entry into cells. Lassa virus pseudotype entry inhibition, cell reporter; control for the full effect not named in the record. Potency, µM (titrated, usually from 37.9 µM), inactives show at the top dose activity change, negative = inhibition, hits mostly inhibitors. 1.2% of 300,000 active; active means well fitted inhibition curve with a large enough effect; inconclusive means small, poorly fitted or top-dose-only effect, or effect the other way; inactive means flat fitted curve, though single readings scatter; tested in HEK293 cells; further: on the % scale 0 is the no-effect control and ±100 the full control effect; nearly all actives have a fitted effect of over 50% in size; luciferase read-out
# Cruzain inh noDet: inhibitors of Trypanosoma cruzi cruzain without detergent; purified cruzain, Z-FR-AMC fluorescence, no detergent; P25779; 2.3% of 200,000 active; Potency, µM, inactives show max response, negative = inhibition, actives largely listed as inhibitors; AID 1476; active means well fitted curve in the direction sought with a large enough effect; inconclusive means small, poorly fitted or top-dose-only effect, or another doubt; inactive means no such curve, though single readings can be large; an effect the other way counts as inactive or inconclusive;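 further: plate controls were enzyme without inhibitor for no effect and buffer without enzyme for full effect; nearly all actives have a fitted effect of over 40% in size; top concentration of the series not given in the record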
#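 Purified cruzain at 1.5 nM, pre-incubated 15 min with compound at room temperature in 100 mM sodium acetate pH 5.5, 5 mM DTT, 0.00005% Triton X-100. Reaction started with 2 uM Z-FR-AMC; AMC fluorescence increase over 60 s gives rate.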
# 2A StopGo: FMDV 2A StopGo reporter, luciferase signal. human cells with a luciferase reporter of 2A StopGo recoding; control for the full effect not named in the record. Potency, µM (doses to about 57.9 µM), for inactives: at the top dose signal change, negative = less light. AID 1159524. 1.2% of 410,000 active; active = well fitted falling curve with a large enough effect; inconclusive = small, poorly fitted or top-dose-only effect; inactive = no such curve, though single readings can be large or run the other way; tested in HEK293T cells; further: on the % scale 0 is the no-effect control and ±100 the full control effect; nearly all actives have a fitted effect of over 45% in size; luciferase light after 4 h
# Marburg entry inh: blocks Marburg virus binding to or entry into cells | Marburg virus pseudotyped entry inhibition, cell reporter; control for the full effect not named in the record; about a third of the inactives were read at about 46 µM | 1.8% of 300,000 active | Potency, µM (series often up to 37.8 µM), for the others: top-dose activity change, negative = inhibition, usual class: inhibitors; active = well fitted inhibition curve with a large enough effect; inconclusive = small, poorly fitted or top-dose-only effect, or effect the other way; inactive = flat fitted curve, though single readings scatter; tested in HEK293 cells; about a fifth of its hits are not listed in these tables; further: on the % scale 0 is the no-effect control and ±100 the full control effect; luciferase read-out
# SARS PLpro yeast: blocks SARS-CoV papain-like protease in a yeast assay; Potency, µM (doses to about 32.9 µM), for inactives: top-dose activity, positive = growth rescue; S. cerevisiae expressing SARS-CoV PLpro, growth rescue; control for the full effect not named in the record; 0.19% of 330,000 active; AID 485353; further: 0% is about no effect; nearly all actives have a fitted effect of over 55% in size; growth read by luminescence after 48 h
# NS1 function inh: blocks influenza NS1 protein function; S. cerevisiae slowed by influenza A NS1, growth recovery by OD600; Potency, µM (titrated, usually from 46.1 µM), inactives show at the top dose activity, positive = more growth; 0.4% of 270,000 active; AID 2326; further: actives are rising curves; nearly all actives have a fitted effect of over 50% in size
#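 Recovery from NS1-induced slow growth read by OD600 in budding yeast switched to galactose assay medium (pH 6.0, -URA) at 1:100 dilution. Compound 23 nl per well; the matching strain lacking NS1 serves as control.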
# RE007 growth inh: less growth of the S. pombe RE007 Vpr strain. S. pombe RE007 Vpr strain, BacTiter-Glo ATP luminescence, 24 h; control for the full effect not named in the record. AID 651644. 0.21% of 360,000 active. Potency, µM (highest dose often 92.2 µM), without a hit: at the top dose activity change, negative = less growth; active = well fitted falling curve with a large enough effect; inconclusive = small, poorly fitted or top-dose-only effect; inactive = no such curve, though single readings can be large or run the other way;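 further: on the % scale 0 is the no-effect control and ±100 the full control effect; nearly all actives have a fitted effect of over 50% in size; the assay follows cell death caused by Vpr and the record does not say whether a fall means rescue or toxicity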
#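 Fission yeast strain RE007, carrying one chromosomally integrated HIV-1 vpr copy, was seeded at OD 0.01 in PMG+AL medium with 23 nL pinned compound. After 24 h at 30 °C and 99% humidity, viability was read by BacTiter-Glo luminescence.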
# Starred values were filed as active, the others as inactive; ? = inconclusive; . = no result given; & = joins results of further samples; [ ] = dose if it differs, or a comment. Unless noted, the call rests on the fitted dose curve; in most records, active means well fitted rising curve with a large enough effect; inconclusive means small, poorly fitted or top-dose-only effect; inactive means no such curve, though single readings can be large or run the other way. Potency means the concentration at half of the fitted maximal effect.
SMILES,Cruzain Triton,LASV entry inh,Cruzain inh noDet,2A StopGo,Marburg entry inh,SARS PLpro yeast,NS1 function inh,RE007 growth inh
CN(CCC1CCOCC1)C(=O)C1CCC(=O)N(CCc2cccc(F)c2)C1 (stereo unspecified),.,42%,.,1%,17%,5%,-1%,2%
COc1ccc(/C(C)=N/OCC(=O)Nc2nc3ccccc3s2)cc1,-7.2%,2%,-13%,3%,1%,-37%,10%,36%
O=C(NCc1cccnc1)C1CCN(S(=O)(=O)N2CCOCC2)CC1,6.3%,5%,2%,11%,13%,10%,-3%,9%
CC(C)N(Cc1nc2ccccc2[nH]1)C(C)C,0.5%,-1%,-1%,-9%,?,9%,3%,18%
c1ccc2c(c1)OCC(c1csc3ncnc(N4CCOCC4)c13)O2 (stereo unspecified),1.4%,20%,4%,.,5%,3%,16%,11%
Cc1cccc(NC(=O)CSc2cn(CC(=O)N3CCOCC3)c3ccccc23)c1C,-3.6%,16%[46.1 µM],23%,24%,.,.,.,.
CCOC(=O)CC(=O)Nc1ccn[nH]1,.,.,.,-5%,.,1%,0%,-7%
C=C(C)C1CC=C(C)/C(=N/NC(=O)CCC(=O)Nc2ccccc2Cl)C1 (stereo unspecified),.,8%[46.1 µM],.,10%,-18%[46.1 µM],-1%,-5%,0%
CCC(C)Cn1c(C)nc2ccccc21 (stereo unspecified),1.9%,-15%,1%,?,-23%,14%,4%,3%
O=c1cc(CN2CCN(S(=O)(=O)c3ccccc3)CC2)nc2sc(-c3ccccc3Cl)nn12,1.9%,27%[46.1 µM],0%,?,.,.,.,.
CC12CCC(C(=O)Nc3ccccc3-n3cccc3)(CC1=O)C2(C)C (stereo unspecified),1.7%,5%,8%,0%,21%[46.1 µM],3%,1%,2%
Nc1c(N2CCOCC2)cc(Cl)c2nonc12,-7.4%,-3%,-11%,-17%,18%,-3%,-7%,16%
COc1ccc2nc(NC(=O)C3CCN(S(=O)(=O)c4cccs4)CC3)sc2c1,-1.2%,15µM*,?,14µM*,?,-3%,19%,-8%
O=[N+]([O-])c1ccc(N2CCN(c3ccccc3O)CC2)c(Cl)c1,-8.0%,-24%,?,-28%,?,-30%,?,?
CC(Oc1ccccc1)c1ccn[nH]1 (stereo unspecified),.,-1%,.,-9%,24%[46.1 µM],0%,4%,-3%
Cc1cccc(C)c1Nc1c(-c2ccsc2)nc2ccc(Cl)cn12,-11%,17%[46.1 µM],?,-10%,-1%[46.1 µM],.,.,.
CCOC(=O)N1CCC(NC(=O)CS(=O)(=O)Cc2nc(-c3ccccc3C)oc2C)CC1,1.8%,11%,?,?,-20%&-20%,-11%,-34%,-4%
O=C(Nc1ccc(-c2csc(-c3ccccc3)n2)cc1)c1ccccc1Cl,5.9%,-18%,?,.,?,2%,-12%,-10%
Cc1cc(C)cc(NC(=O)C2CCCN(S(=O)(=O)c3cnc[nH]3)C2)c1 (stereo unspecified),0.2%,.,-2%,-16%,.,-1%,-4%,-11%
Cc1nc2ccccc2c(=O)n1CCCO,1.0%,3%,-1%,10%,-17%,2%,1%,-2%
C=CCn1cnc2scc(-c3ccc(OC)cc3)c2c1=O,.,4%[46.1 µM],.,-8%,5%[46.1 µM],-2%,-22%,-2%
Cc1cc2c(c(C)c1Cl)C(c1ccc3c(c1)OCO3)CC(=O)O2 (stereo unspecified),0.3%,.,?,-13%,.,-59%,.,21%
CCCCOC(=O)/C=C/c1c(C)[nH]c(=O)[nH]c1=O,-2.8%,-11%,2%,-11%,7%,-35%,18%,22%
COc1cc(-c2nnc(COc3ccc4ccccc4c3)o2)cc(OC)c1OC,-2.5%,?,?,0%,-8%,-15%,16%,17%
COc1ccc(CNC(=O)C(CC(C)C)NC(=O)c2ccccc2C)cc1 (stereo unspecified),.,.,.,20%,19%[46.1 µM],-3%,-16%,0%

# (listing goes on)
SMILES,Cruzain Triton,LASV entry inh,Cruzain inh noDet,2A StopGo,Marburg entry inh,SARS PLpro yeast,NS1 function inh,RE007 growth inh
COc1cc(/C=N/NC(=O)c2cccc(C(=O)N/N=C/c3ccc(O)c(OC)c3)n2)ccc1O,.,-25%,.,10%,1%,-2%,5%,7%
Cc1c(Cc2ccccc2)sc(/N=C/c2ccc3ccccc3c2)c1C(N)=O,-4.2%,?,6.3µM*,34%[activator],?,?,?,-3%
O=C(CCCN1C(=O)C(c2ccccc2)Oc2cccnc21)NCc1ccccc1F (stereo unspecified),.,.,.,-8%,.,29%,5%,18%
O=C(c1ccc2c(c1)N(Cc1ccc(F)cc1)C(=O)CS2)N1CCOCC1,6.0%,-2%,7%,14%,30%,14%,9%,0%
c1ccc(-c2noc(CN3CCN(C(c4ccccc4)c4ccccc4)CC3)n2)cc1,3.0%,2%,-6%,.,?,-1%,-60%,-2%
Cc1ccc(Cl)cc1N1CCN(S(=O)(=O)c2ccc3c(c2)C(C(C)C)C(=O)N3)CC1 (stereo unspecified),-4.2%,-21%[46.1 µM],-6%,0%,.,.,.,.
Cc1ccc(NC(=O)CC2Oc3ccc(C)cc3NC2=O)cc1 (stereo unspecified),5.1%,.,1%,-7%,.,11%,5%,1%
CCOC(=O)c1oc2ccccc2c1NC(=O)Cc1cccs1,4.0%,-26%[14.3 µM],-15%,15%,5%,0%,-5%,-1%
Cc1cc(C)c2c(=O)cc(C(=O)NCCc3ccc(S(N)(=O)=O)cc3)oc2c1,-0.9%,-2%[46.1 µM],-3%,-27%,-10%[46.1 µM],.,.,.
C(=Cc1c[nH]c2ccccc12)c1ccc2ccccc2n1,.,?,.,?,2.2µM*,.,.,?
CCOC(=O)NCCc1ccc(OC)cc1,4.1%,4%,-6%,11%,22%,6%,-2%,21%
Cc1c(NS(=O)(=O)c2ccc(Cl)c(C(=O)OC(C)C(=O)N3CCOCC3)c2)c(=O)n(-c2ccccc2)n1C (stereo unspecified),.,5%[46.1 µM],.,18%,8%[46.1 µM],3%,.,9%
O=C(c1cccc(Cl)c1)C1CCCN(C(=O)c2ccoc2)C1 (stereo unspecified),.,11%,.,4%,0%[46.1 µM],0%,-2%,0%
CCC(=O)NCC(c1cccs1)S(=O)(=O)c1ccc(C)cc1 (stereo unspecified),.,.,.,-12%,.,0%,?,2%
Cc1ccc(CSc2oc(-c3ccco3)nc2S(=O)(=O)c2ccc(Br)cc2)cc1,-3.7%,18%[46.1 µM],-2%,-14%,-3%[46.1 µM],.,.,.
COC(=O)c1ccccc1NC(=O)C1=C(C)C(=O)OC12CCC(C)CC2 (stereo unspecified),-2.5%,1%[46.1 µM],3%,-10%,5%[46.1 µM],.,.,.
NNc1nc2ccccc2c(=O)n1Cc1ccccc1,.,-7%[46.1 µM],.,18%,?,4%,9%,9%
CCOc1cc2c(Cl)ncnc2c(OCC)c1OCC,.,0%[46.1 µM],.,4%,18%[46.1 µM],11%,2%,-14%
O=C(NC1CCCC1)C(c1ccsc1)N(C(=O)Cc1cccs1)c1ccc(F)cc1 (stereo unspecified),3.4%,0%,?,.,-26%,9%,1%,3%
CCC1CCCCN1C(=O)CSc1nc2ccsc2c(=O)n1Cc1ccccc1 (stereo unspecified),2.1%,?,6%,-15%,?,1%,5%,23%
OCCNc1nc2ccccc2[nH]1,-1.5%,3%,0%,11%,1%[46.1 µM],1%,-1%,-18%
O=C(NC1CCc2ccccc21)c1cc(COc2ccc(F)cc2Cl)on1 (stereo unspecified),.,.,.,30%[activator],.,1%,1%,17%
COc1ccc(C(=O)NC2CCCc3ccccc32)cc1 (stereo unspecified),.,-7%,.,21%,?,-4%,-24%,12%
Oc1c(C(c2ccccc2)N2CCOCC2)ccc2ccccc12 (stereo unspecified),.,?,.,?,?,.,.,-7%
CCOc1ccc(S(=O)(=O)Nc2ccc(C(=O)NCCCN3CCCC3=O)cc2)cc1,.,8%,.,-1%,13%,.,.,-12%

# New compounds follow:
SMILES,Cruzain Triton,LASV entry inh,Cruzain inh noDet,2A StopGo,Marburg entry inh,SARS PLpro yeast,NS1 function inh,RE007 growth inh
CSCC[C@H](NC(=O)Nc1ccc(S(N)(=O)=O)cc1)C(=O)O,.,.,.,13%,.,1%,6%,6%
COc1ccccc1/C=C/C(=O)c1c2c(c(C)[nH]c1=O)CCCC2,-2.4%,-46%[14.3 µM],-19%,?,21µM*,3%,-5%,9%
CCCOC(=O)c1c(-c2ccc(C)cc2C)csc1NC(=O)C1C2CCC(O2)C1C(=O)O (stereo unspecified),-6.1%,-23%,6%,?,?,2%,27%,.
COc1ccc(OC)c(N2C(=O)NC(=O)/C(=C/c3ccc([N+](=O)[O-])s3)C2=O)c1,.,10%,.,-20%,.,2%,.,-29%
CCCCC(CC)CNC(=O)c1ccc2c(=O)n(Cc3ccc(OC)cc3)c(=O)[nH]c2c1 (stereo unspecified),0.9%,12%[46.1 µM],3%,-21%,13%[46.1 µM],.,.,.
Brc1ccc(-c2ccccc2)cc1,-0.8%,.,-9%,-1%,.,-3%,.,0%
Cn1c(CNC(=O)CNS(=O)(=O)c2ccc(Br)cc2)cc(=O)n(C)c1=O,.,-4%[46.1 µM],.,-7%,9%[46.1 µM],-2%,14%,-5%
C/C(CC(=O)Nc1ccc(N(C)C)cc1)=N\NC(=O)c1ccc([N+](=O)[O-])cc1Cl,.,-3%,.,-7%,?,-3%,9%,-12%
O=c1c2ccccc2nc2n1C(CBr)CN2 (stereo unspecified),.,.,.,3%,.,0%,5%,1%
Cc1occc1C(=O)Nc1nnc(C(F)(F)F)s1,-0.9%,43%,-11%,36%[activator],-4%,-21%,-55%,-13%
Cc1ccc(-c2nnc(SCC(=O)N/N=C/c3ccc(C(=O)O)cc3)n2C2CCCCC2)cc1,.,.,.,-2%,.,2%,7%,7%
CN(CC(=O)Nc1cccc(F)c1)C(=O)C1CC(=O)N(Cc2ccco2)C1 (stereo unspecified),.,-4%,.,4%,-1%[46.1 µM],-8%,.,-16%

# Screening results deposited in PubChem BioAssay by National Center for Advancing Translational Sciences (NCATS).
